TRPV1 potentiator: HTS Assay for Compounds that Act as Potentiators of the Vanilloid Receptor 1. TRPV1-expressing cells, Fluo-8 calcium influx, capsaicin EC20 potentiation; host cell line not named in the record; control for the full effect not named in the record. potentiation, % at 8.33 µM. 320,000 compounds, 0.02% hits. AID 540277, 2011; active means potentiation above 80%; inconclusive means 30% to 80%; inactive means below 30%; further: 0% is about no effect
Target sequence (Q8NER1 whole entry, looked up): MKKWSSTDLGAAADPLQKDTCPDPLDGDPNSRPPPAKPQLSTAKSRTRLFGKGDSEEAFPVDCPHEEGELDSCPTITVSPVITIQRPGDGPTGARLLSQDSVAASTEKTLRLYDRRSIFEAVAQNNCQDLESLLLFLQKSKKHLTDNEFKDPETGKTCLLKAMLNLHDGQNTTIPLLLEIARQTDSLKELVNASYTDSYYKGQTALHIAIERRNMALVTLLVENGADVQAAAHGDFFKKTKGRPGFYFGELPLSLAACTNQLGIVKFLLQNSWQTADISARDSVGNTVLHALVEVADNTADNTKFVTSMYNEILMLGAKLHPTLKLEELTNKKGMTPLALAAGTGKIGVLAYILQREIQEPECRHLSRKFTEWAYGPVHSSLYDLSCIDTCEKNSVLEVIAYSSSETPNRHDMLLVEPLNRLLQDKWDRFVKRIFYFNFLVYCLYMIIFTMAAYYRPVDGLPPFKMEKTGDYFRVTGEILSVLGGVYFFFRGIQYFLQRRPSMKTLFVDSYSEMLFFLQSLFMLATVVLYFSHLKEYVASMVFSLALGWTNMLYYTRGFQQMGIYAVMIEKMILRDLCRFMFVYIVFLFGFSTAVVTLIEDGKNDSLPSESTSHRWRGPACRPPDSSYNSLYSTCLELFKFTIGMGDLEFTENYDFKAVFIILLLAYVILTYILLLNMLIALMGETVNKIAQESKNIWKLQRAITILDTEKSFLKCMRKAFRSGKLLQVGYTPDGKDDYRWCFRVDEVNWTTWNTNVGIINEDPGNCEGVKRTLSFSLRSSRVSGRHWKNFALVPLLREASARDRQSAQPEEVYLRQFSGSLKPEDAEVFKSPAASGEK
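Cells expressing TRPV1 were dye-loaded with Fluo-8 and read kinetically: 10 s baseline, 3 min after compound (agonist portion), then 2 min after EC20 capsaicin (allosteric enhancer portion). Calcium-bound dye fluorescence at 480/520 nm.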
gsp ag: qHTS for Agonist of gsp, the Etiologic Mutation Responsible for Fibrous Dysplasia/McCune-Albright Syndrome: qHTS. Potency, µM (top dose mostly 76.9 µM), inactives show top-dose activation (cAMP increase), most hits filed as activators. AID 624287, 2012. gsp mutant cells, cAMP HTRF, 30 min; control for the full effect not named in the record. 340,000 compounds, 0.13% hits; active = well fitted activation curve with a large enough effect; inconclusive = small, poorly fitted or top-dose-only effect, or another doubt; inactive = no such curve, though single readings can be large or run the other way; cell line not stated here;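 further: phosphodiesterase inhibitor Ro 20-1724 added with compounds to block cAMP breakdown; potency means the concentration at half of the fitted maximal effect; nearly all actives have a fitted effect of over 60% in size; about a fifth of the inactives were tested at one dose only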
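Cells stably selected in G418 were plated at 2000/well, grown 16-24 hr, then given compounds in DMSO with the PDE inhibitor […] (300 uM solution added) for 30 min at 37C; cAMP was read by HTRF.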
ClpP mod: qHTS Assay for Activators of ClpP. Potency, µM (doses to about 57.5 µM), without a hit: top-dose activity change, negative = active. purified B. subtilis ClpP, FRET peptide cleavage, 20 min. AID 651965, 2013. 340,000 compounds, 1.9% hits. ATP-dependent Clp protease proteolytic subunit (Bacillus subtilis (strain 168)), P80244; active = well fitted falling curve with a large enough effect; inconclusive = small, poorly fitted or top-dose-only effect; inactive = no such curve, though single readings can be large or run the other way; further: potency means the concentration at half of the fitted maximal effect; the source files actives as falling curves though it sought activators and does not explain the sign; nearly all actives have a fitted effect of over 65% in size; many hits overshoot -100%
Target sequence (P80244 whole entry, looked up): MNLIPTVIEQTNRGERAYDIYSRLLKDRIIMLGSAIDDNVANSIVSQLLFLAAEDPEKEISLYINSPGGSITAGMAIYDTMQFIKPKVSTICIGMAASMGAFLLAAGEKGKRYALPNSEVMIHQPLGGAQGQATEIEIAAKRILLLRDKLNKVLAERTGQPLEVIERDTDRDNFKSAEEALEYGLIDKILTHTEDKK
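ClpP 10 microg/mL final, pH 8 Tris/KCl buffer with BSA, glycerol, Tween-20; compound pinned in; FRET-FV substrate; RT 20 min; Ex320/Em430; ΔFRET vs ADEP 5.8 microM, DMSO, no enzyme.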
Menin-MLL FL inh: qHTS Assay for Inhibitors Targeting the Menin-MLL Interaction in MLL Related Leukemias: Competition With Fluorescein Labeled MLL-derived Peptide; Fluorescence polarization, fluorescein-MLL peptide displacement from menin; FP activity change, % at 61.4 µM; 290,000 tested, under 10 active; inconclusive = falling polarisation curve, or a change in total fluorescence; inactive = total fluorescence flat and polarisation flat or rising; no compound was filed as active; the % refers to the polarisation; negative = inhibition;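 further: % of control where 0% means no effect; inhibitors lower the polarisation; unlabelled MLL peptide was the positive control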
D2 potentiator: Beta-Arrestin HTS for Positive Allosteric Modulators of the Human D2 Dopamine Receptor: Potentiators; D(2) dopamine receptor (Homo sapiens), P14416; DiscoveRx D2 beta-arrestin cells, luminescence, 90 min; 100% = 57 uM dopamine signal; potentiation, % (concentration not given with the values); 360,000 compounds, 0.23% hits; active = potentiation of 50% or more; inconclusive = 30% to 50%; inactive = 30% or less;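 further: tested on top of an EC20 dose of dopamine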
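PathHunter D2 cells, attached overnight at 37 deg C, received compound in DMSO plus dopamine at EC20 (50 nM final) for 90 min at 37 deg C. Beta-arrestin recruitment was read as luminescence after 1 h with detection reagent at ambient temperature.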
Sfp inh: qHTS Assay for Inhibitors of Bacillus subtilis Sfp phosphopantetheinyl transferase (PPTase); Potency, µM, without a hit: max response, negative = inhibition, most hits filed as inhibitors; 4'-phosphopantetheinyl transferase ffp (Bacillus subtilis), Q9F4F7; 310,000 compounds, 3.5% hits; Biochemical Sfp PPTase activity, qHTS; active means well fitted inhibition curve with a large enough effect; inconclusive means small, poorly fitted or top-dose-only effect, or another doubt; inactive means no such curve, though single readings can be large or run the other way;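 further: the enzyme is Sfp with the accession as filed and its product quenches rhodamine fluorescence; potency means the concentration at half of the fitted maximal effect; 0% = enzyme reaction without inhibitor and -100% = no enzyme wells; top concentration of the series not given in the record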
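Compounds were incubated with enzyme (final 15 nM) for 15 min at room temperature before substrate addition started the reaction. Fluorescence at 525 nm excitation, 598 nm emission was recorded immediately and after 30 minutes.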
gsp antagonist: qHTS for Antagonists of gsp, the Etiologic Mutation Responsible for Fibrous Dysplasia/McCune-Albright Syndrome: qHTS. AID 624288, 2012. gsp-mutant cells, cAMP HTRF, 30 min; control for the full effect not named in the record. Potency, µM (highest dose often 76.9 µM), for the others: at the top dose activity change, negative = inhibition, usual class: inhibitors. 340,000 compounds, 0.4% hits; active = falling curve of any shape with a large fitted effect; inconclusive = falling curve, mostly with a smaller effect; inactive = flat or rising curve; cell line not stated here;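 further: intracellular cAMP measured with PDE inhibitor Ro 20-1724 present during compound exposure; potency means the concentration at half of the fitted maximal effect; on the % scale 0 is the no-effect control and ±100 the full control effect; nearly all actives have a fitted effect of over 65% in size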
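G418-selected cells were plated in DMEM/10% FBS for 16-24 h at 37C, then treated with compounds plus the PDE inhibitor […] (300 uM solution added) for 30 min at 37C. Intracellular cAMP was measured by HTRF after 30 min lysis at room temperature.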
* marks the source's active call; other numbers are inactive results; ? = inconclusive; · = not tested or not shown; & = joins results of further samples; [ ] = another dose, or the depositor's remark.

SMILES	TRPV1 potentiator	gsp ag	ClpP mod	Menin-MLL FL inh	D2 potentiator	Sfp inh	gsp antagonist
CCN(CC)S(=O)(=O)c1ccc(Cl)c(C(=O)Oc2cccc(-c3cnc4ccccc4n3)c2)c1	17	-28%	-3.1%	-0.3	9	0%	-23%
CCCOc1ccc(N2C(=O)CC(N(CCC)C(=O)CCC(=O)O)C2=O)cc1 (stereo not given)	4	9%	-17%	-2.2	-19	-4%	4%[15.4 µM]
Cc1ccc(-n2c(SCC(=O)Nc3ccc4c(c3)OCO4)nnc2-c2ccoc2C)cc1	-2	-23%	-0.4%	-0.2	-6	0%	-16%
CC(C)(C)NC(=O)C1CCN(S(=O)(=O)c2cccc(C(F)(F)F)c2)CC1	0	3%[15.4 µM]	-0.4%	1.9	-9	7%	8%
COc1cc(NC(=O)c2csc3c2CCCC3)ncn1	-15	-15%	-1.0%	3.1	-12	-14%	3%
COc1ccc(CC(NC(C)=O)C(=O)NC2CCN(C(=O)c3ccc(OC)c(OC)c3)CC2)cc1OC (stereo not given)	-9	?	2.3%	?	-4	7%	6%
COc1ccc(C(=O)NC(=O)Nc2ncccc2C)cc1	0	-30%	-7.4%	0.9	-8	15%	5%
O=C(CSc1ccc(Cl)cc1)Nc1ccc(N2CCN(C(=O)c3ccco3)CC2)cc1	·	0%	-1.1%	6.3	3	-9%	?
CC(=O)N1CCc2cc(S(=O)(=O)CCC(=O)NCc3ccc(C)o3)ccc21	25	12%	·	0.2	-3	25µM*	5%
Cc1c(/C=C/C(=O)c2ccc(C(C)C)cc2)cnn1C	-6	-65%[inhibitor]	·	-1.8	0	7%	-9%
C[C@@H]1CN([C@H](C)CO)S(=O)(=O)c2ccc(Br)cc2O[C@@H]1CN(C)Cc1ccc(C(=O)O)cc1	·	13%	0.8%	·	1	·	·
O=C1CN(C(=O)COC(=O)CCCOc2ccccc2)c2ccccc2N1	4	-6%[15.4 µM]	-1.0%	3.0	1	11%	-10%
CS(=O)(=O)N(CC(=O)NCc1ccccc1)c1ccc(Cl)cc1	-1	3%	0.8%	-4.1	-2	6%	1%
COC(=O)c1ccc(NC(=O)c2ccccc2NS(=O)(=O)c2ccccc2)cc1	7	8%	-24%	-2.4	-10	9%	?
COc1cccc(OC)c1C(=O)Nc1ccc(N2CCN(C(=O)c3ccco3)CC2)cc1	8	-7%[15.4 µM]	·	-1.8	5	15%	5%
CCOC(=O)C1=C(N)Oc2cc(O)ccc2C1c1ccc(F)cc1F (stereo not given)	10	3%	-13%	1.3	1	27%	-7%
Cc1ncc(CN2CCC(C(=O)Nc3cccc(-c4cscn4)c3)CC2)cn1	1	5%[15.4 µM]	-1.4%	·	-37	10%	-8%
Cc1ccc(-c2cc(-c3ccc(C)o3)nc(N)c2C#N)cc1	-5	25%	22µM*	?	15	13µM*	5%
N#CC1=C(N)N2C(=C(C#N)C13CCN(Cc1ccccc1)CC3)Nc1ccccc12	-2	18%	32µM*	4.1	-15	12%	-9%
CCN(CC(=O)NC1CCS(=O)(=O)C1)C(=O)C(c1ccccc1)c1ccccc1 (stereo not given)	29	-26%	1.6%	2.7	-13	6%	-10%
COc1ccc(N2C(=O)C3C(C2=O)C3(c2ccccc2)c2ccccc2)cc1 (stereo not given)	-13	0%	·	18	1	2%	-23%
Cc1ccc(C)c(S(=O)(=O)Nc2ccc(C(=O)NCC(c3ccco3)N3CCCCC3)cc2)c1 (stereo not given)	5	4%	1.2%	1.8	-30	-3%	-14%
O=C(Cc1ccccc1F)Nc1nc2ccccc2[nH]1	5	-8%[15.4 µM]	·	1.1	3	0%	3%
Cc1cc(O)ccc1NC1=CC(=O)CC(C)(C)C1	-14	-13%[15.4 µM]	0.0%	0.3	9	-15%	8%
COc1ccc(CC(=O)Nc2cccc3ncccc23)cc1OC	-6	17%[15.4 µM]	·	-5.2	-7	8%	0%
CC(NC(=O)COc1ccc(/C=N/NC(=O)CO)cc1)c1ccccc1 (stereo not given)	-1	-4%	-0.7%	0.4	1	17%	0%
CC(C)C1Cc2[nH]c(=O)c(C(=O)O)cc2CO1 (stereo not given)	-1	9%	35µM*	0.6	-13	19%	8%
COc1ccc(CCC(=O)Nc2ccc3c(c2)OCO3)cc1	-10	-2%[15.4 µM]	-1.8%	-7.1	-30	-8%	-5%
Cc1cc(C)cc(-n2nnc3ccccc3c2=O)c1	·	-18%	-1.3%	·	-4	·	·
COc1cccc(CNC(=O)CCn2ccc3cc(S(=O)(=O)N4CCC(C)CC4)ccc32)c1	10	-5%	-0.8%	0.3	-9	9%	-22%
COc1cc(C(=O)OCC(=O)Nc2sccc2C(N)=O)cc(OC)c1OC	-1	-1%	2.1%	5.0	10	14%	15%
CN(Cc1ccccc1)C(=S)NC(=O)c1cccs1	-5	5%	0.1%	2.1	1	22%	3%
CC(=O)C[C@@H](O)CC(=O)[C@H]1OC(=O)CC/C=C\Cc2ccccc21	-5	12%	1.0%	·	-14	·	-1%
O=S1(=O)N=C2CCCN2C(c2ccc(F)cc2)N1 (stereo not given)	-5	0%	1.6%	1.3	-7	9%	-1%
Cc1ccccc1CSc1nnc(NC(=O)C2COc3ccccc3O2)s1 (stereo not given)	-6	10%	0.9%	3.2	7	31%[activator]	?
COc1ccc(NC(=O)N(C)C[C@H]2Oc3c(NC(=O)c4ccncc4)cccc3C(=O)N([C@H](C)CO)C[C@@H]2C)cc1	·	0%	4.1%	·	-4	·	7%
Nc1cc(Cc2ccccc2)ccc1O	·	-72%	-2.8%	·	?	·	1%
CCN(CC)c1ccc2cc(C(C)=O)c(=O)oc2c1	-30	-6%	1.2%	?	-19	0%	2%
COc1cccc(N/C(SC)=C(/C#N)C(N)=O)c1	1	23%	1.2%	1.8	-11	18%	5%
COc1cccc(CNC(=S)Nc2cccc(Cl)c2C)c1	-26	-9%[15.4 µM]	-0.4%	4.5	-4	15%	-3%
COc1ccc2c(c1)Cc1sc(NC(=O)c3cccnc3)nc1-2	-12	-4%[15.4 µM]	·	1.0	-1	-85%	-20%
Cn1c2nc(=O)[nH]c(=O)c-2cc2ccccc21	·	42%	18µM*	·	-12	·	5%
COc1ccc(C(C(=O)NC2CCCC2)N(C(=O)c2snc(-c3ccc(F)cc3)c2N)c2ccc(F)cc2)cc1 (stereo not given)	14	?	?	-0.8	-10	37%	7%
COc1ccc(OC)c(/C=N\NC(=O)CC(=O)NCCc2ccccc2)c1	5	-1%[15.4 µM]	-5.3%	-2.3	-11	7%	-8%
Cc1noc(C)c1CC(=O)NC1CC(C)(C)Cc2c1cnn2-c1ccccc1 (stereo not given)	7	-54%[inhibitor]	1.5%	·	-7	13%	8%
CCCc1cc(-c2nc(-c3ccc(C)cc3)cs2)ccn1	-11	-30%	-25%	-3.1	-8	-90%	-19%
Cc1ncc(CN2CCN(CCC(C)C)C(CCO)C2)s1 (stereo not given)	-7	-4%	0.6%	-0.1	-2	-1%	9%
CCOC(=O)c1c(NC(=O)COC(=O)CCCOc2ccc(OC)cc2)sc(C(=O)NC)c1C	-25	4%	1.4%	·	-9	·	-18%
Cc1cc(C)n(C(=O)c2sc3cc(F)ccc3c2Cl)n1	-12	·	·	3.8	·	10%	·
O=c1nc(N2CCCC2)nc(N2CCCC2)[nH]1	-1	-32%[inhibitor]	·	1.3	-2	18%	-1%
CC(C)(C)c1ccc(NC(=O)CN2C(=O)NC(C)(C3CC3)C2=O)cc1 (stereo not given)	-21	-15%	-3.7%	·	-10	·	-2%
CC(C)c1ccc(NC2CCCN(C(=O)c3ccc4nccnc4c3)C2)cc1 (stereo not given)	-9	15%	-1.3%	·	-31	13%	-1%
O=C(/C=C/c1ccc2c(c1)OCCCO2)c1ccc2ccccc2c1O	9	?	1.4%	-3.2	-12	40µM*	-6%
COc1ccc(NS(=O)(=O)c2ccc(Cl)c(NC(=O)c3ccccc3F)c2)cc1	·	-16%	-0.7%	·	3	·	?
COCCNC(C)C(=O)Nc1ccc(Br)cc1 (stereo not given)	11	1%	0.1%	-1.5	-13	-26%	7%
COc1ccc(NC(=O)CN(c2ccccc2)S(=O)(=O)c2ccccc2)c(OC)c1	-6	-1%	-1.2%	4.0	-15	5%	5%
O=C1c2ccccc2C(=O)N1c1cccc(-c2nc3ccccc3o2)c1	1	-28%	-1.2%	-0.7	0	7%	0%
CCN(CC)S(=O)(=O)c1ccc(NC2c3ccccc3C(=O)N2Cc2ccc3c(c2)OCO3)cc1 (stereo not given)	-4	-39%[inhibitor]	-4.1%	2.3	2	-4%	0%
COC(=O)CN1C(=O)C(O)(CC(=O)c2ccc(C)cc2)c2cc(Br)ccc21 (stereo not given)	24	-89%[inhibitor]	0.0%	-0.8	-6&1	-10%	7%
Cc1c(C#N)c2n(c1C)CCCC(=O)N2	·	15%	-1.5%	·	-6	·	·
Cc1csc2ncc(C(=O)NCc3ccc4c(c3)OCO4)c(=O)n12	1	?	-10%	2.6	-5	-3%	3%
COC(=O)c1cc(S(=O)(=O)N(C)C2CCCCC2)cn1C	1	-17%	1.6%	·	-3	1%	3%
CCN(CC(=O)NC1CCS(=O)(=O)C1)S(=O)(=O)c1cc(C)ccc1C (stereo not given)	-18	5%[15.4 µM]	0.5%	·	-10	·	12%

2 records picked at random from those above:
SMILES	TRPV1 potentiator	gsp ag	ClpP mod	Menin-MLL FL inh	D2 potentiator	Sfp inh	gsp antagonist
COc1ccc(NS(=O)(=O)c2ccc(Cl)c(NC(=O)c3ccccc3F)c2)cc1	·	-16%	-0.7%	·	3	·	?
COc1ccc(NC(=O)CN(c2ccccc2)S(=O)(=O)c2ccccc2)c(OC)c1	-6	-1%	-1.2%	4.0	-15	5%	5%
